# High-throughput results (PubChem)
# Sa RN4220 lethal = S. aureus RN4220 growth inhibition. OD600, 16 h. inhibition, % (no concentration beside the values). 330,000 tested, 0.33% active;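 active = z-score of -3 or lower and OD600 up to 0.18 on both plates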;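 also: plate controls were untreated cells for no effect and reference antibiotic for full effect; stock transfer was 100 nL into about 80 µL; one replicate is shown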
# BJeLR viability = BJeLR cell viability loss; inhibition, % (concentration not given with the values); BJeLR (HRASV12) viability, CellTiter-Glo ATP luminescence, 48 h; reference of the scale not given here; 300,000 tested, 0.17% active;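 active = replicate mean above 50%; inconclusive = above 50% but judged a plate artefact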;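 also: 50 nL library stock added to about 25 µL; numbers are from one replicate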
# PrP 5UTR inh = suppresses PrP 5' UTR mRNA reporter expression. AID 488862. inhibition, % (concentration not given with the values). cell-based PrP 5' UTR mRNA reporter, plate reader. 340,000 tested, 0.35% active;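 active = every replicate at 50% or more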;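 also: 0 = median of the neutral control wells; tested in H4 reporter cells; numbers are from one replicate; inactives centre near -14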
# Mtb hypoxia inh = reduces hypoxia-regulated biosensor signal in M. tuberculosis; 300,000 tested, 0.1% active; M. tuberculosis hypoxia-regulated fluorescent reporter, fluorescence; fluorescence inhibition, % (no concentration beside the values);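 active = 35 to 45% if threefold the growth effect, above 45% if 1.5-fold the growth effect; inactive = the rest, general growth blockers included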;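 also: wells of about 50 µL received 100 nL stock; 0% = vehicle wells and 100% = reference inhibitor wells; whole bacteria with a GFP reporter of the hypoxia response; strong numbers were not always called active; many hits fall short of the cut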
# Sa ugtP lethal = compounds lethal to S. aureus RN4220 ugtP deletion mutant. growth inhibition, % (test concentration not listed). AID 1259309. OD600 growth, 16 h; some inactives read as strong as hits. 330,000 tested, 0.54% active;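 active = z-score under -3 and OD600 up to 0.15 on both plates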;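 also: plate controls were untreated wells for no effect and antibiotic for full effect; wells of about 80 µL received 100 nL stock; the first replicate is given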
# Bead autofluor = flagged as autofluorescent in microsphere protease counterscreen; AID 624483; fluorescence intensity (concentration not given with the values); 360,000 tested, 3.1% active; compound autofluorescence counterscreen, microsphere flow cytometry; active compounds read high;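 active = at least 3 SD above the mean of all compounds, about 16000 in these data; inconclusive = too few beads counted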;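 also: 100 nL of 1 mM stock went into each well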
# Mtb hypoxia inh growth = recorded beside Mtb hypoxia inh, whose call it bears; growth inhibition, %; measured here: M. tuberculosis growth (absorbance);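 0% = vehicle and 100% = reference antibiotic; read after six days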
# * hit, by the source's call; ? = inconclusive; . = not tested or not shown. This is a random part of the collection; about 4% have a hit in one of these screens.
SMILES,Sa RN4220 lethal,BJeLR viability,PrP 5UTR inh,Mtb hypoxia inh,Mtb hypoxia inh growth,Sa ugtP lethal,Bead autofluor
Cc1cc(C)c(S(N)(=O)=O)c(C)c1N(C)S(=O)(=O)c1ccccc1,4.0,5.4,-8.6,4.8,15.6,0.2,5036
Cc1c(CCO)c(=O)n(-c2ccccc2)n1S(=O)(=O)c1ccc(Cl)cc1,3.3,-1.0,-18.2,.,.,9.2,2449
CC(=O)Nc1ccc2nc(SCC(=O)Nc3ccc(N4CCOCC4)c(Cl)c3)sc2c1,-0.7,0.2,-30.3,6.4,15.6,-17.6,9858
CC(C)(C)OC(=O)CNC(=O)c1nc[nH]c1C(=O)N1CCN(C(=O)OC(C)(C)C)CC1,2.0,2.8,-7.0,-9.1,-5.4,1.5,3663
Cc1cc(/C=N/NC(=O)c2cc3ccccc3o2)c(C)n1C,.,7.4,-22.1,.,.,.,4021
COC(=O)c1ccccc1Oc1nc(Cl)cc(OC)n1,4.9,4.1,-30.0,7.1,16.5,4.9,8274
COc1ccccc1NC(=O)c1cc2ccc(O)cc2o/c1=N\O,.,13.0,-34.7,.,.,.,3179
COc1ccc(-n2c(=S)[nH]c3cc(C(=O)NCCCN4CCOCC4)ccc3c2=O)cc1OC,3.9,-0.6,-28.8,-5.6,0.1,10.4,5250
Cc1ccccc1S(=O)(=O)Cc1ccc(C(=O)NCCCOC(C)C)o1,1.7,-1.4,1.7,-1.8,6.5,-3.8,15671
CC1CCCCN1C(=O)c1cc(-c2ccc3c(c2)OCO3)on1 (stereo not drawn),5.2,4.4,-41.0,11.6,-3.8,-1.8,3070
O=C(c1ccc(NS(=O)(=O)c2ccc3c(c2)OCCO3)cc1)N1CCCCC1,1.3,0.9,-16.9,7.1,-1.7,-1.1,4597
Clc1ccc(-c2csc3ncnc(NCCN4CCOCC4)c23)cc1,2.6,3.5,-9.4,.,.,-3.6,3646
NC(=O)CNc1ncc(C(F)(F)F)cc1Cl,4.5,1.1,-19.3,2.2,7.5,2.9,4487
O=C(CSc1nnc(-c2cccs2)n1-c1cccc(Cl)c1)c1cccc2c1OCCO2,5.5,8.0,-25.0,9.0,3.6,-16.5,4178
O=C(NCCc1cccc(Cl)c1)C1CCC(=O)N(Cc2ccc(Cl)cc2)C1 (stereo not drawn),-1.8,3.5,-20.0,-8.5,14.1,-5.4,6097

# Among those listed so far, 2 contain a furan ring, fused or not.
SMILES,Sa RN4220 lethal,BJeLR viability,PrP 5UTR inh,Mtb hypoxia inh,Mtb hypoxia inh growth,Sa ugtP lethal,Bead autofluor
Cc1cc(/C=N/NC(=O)c2cc3ccccc3o2)c(C)n1C,.,7.4,-22.1,.,.,.,4021
Cc1ccccc1S(=O)(=O)Cc1ccc(C(=O)NCCCOC(C)C)o1,1.7,-1.4,1.7,-1.8,6.5,-3.8,15671

# Two compounds drawn at random from those above:
SMILES,Sa RN4220 lethal,BJeLR viability,PrP 5UTR inh,Mtb hypoxia inh,Mtb hypoxia inh growth,Sa ugtP lethal,Bead autofluor
COc1ccc(-n2c(=S)[nH]c3cc(C(=O)NCCCN4CCOCC4)ccc3c2=O)cc1OC,3.9,-0.6,-28.8,-5.6,0.1,10.4,5250
Clc1ccc(-c2csc3ncnc(NCCN4CCOCC4)c23)cc1,2.6,3.5,-9.4,.,.,-3.6,3646

# In the list so far, these have an NH in an aromatic ring:
SMILES,Sa RN4220 lethal,BJeLR viability,PrP 5UTR inh,Mtb hypoxia inh,Mtb hypoxia inh growth,Sa ugtP lethal,Bead autofluor
CC(C)(C)OC(=O)CNC(=O)c1nc[nH]c1C(=O)N1CCN(C(=O)OC(C)(C)C)CC1,2.0,2.8,-7.0,-9.1,-5.4,1.5,3663
COc1ccc(-n2c(=S)[nH]c3cc(C(=O)NCCCN4CCOCC4)ccc3c2=O)cc1OC,3.9,-0.6,-28.8,-5.6,0.1,10.4,5250

# More results:
SMILES,Sa RN4220 lethal,BJeLR viability,PrP 5UTR inh,Mtb hypoxia inh,Mtb hypoxia inh growth,Sa ugtP lethal,Bead autofluor
CC(OC(=O)C1=Cc2ccccc2OC1)C(=O)NCc1ccco1 (stereo not drawn),0.0,5.7,-11.2,16.6,10.3,10.5,3134
O=C(O)C1C2C=CC(C2)C1C(=O)NCCc1ccccc1 (stereo not drawn),0.2,-1.0,-18.8,5.3,6.7,-6.9,10095
CC1CCN(c2c([N+](=O)[O-])c(=O)oc3ccccc23)CC1,2.8,-5.3,-4.8,0.0,0.3,3.2,2211
Cc1ccc(OCCN(C)C(=O)CC2C(=O)NCCN2CC(C)(C)C)cc1 (stereo not drawn),7.5,-3.6,-42.2,10.9,9.5,4.5,4602
COC(=O)c1c(NC(NC(=O)C(C)(C)C)C(Cl)(Cl)Cl)sc2c1CCC2 (stereo not drawn),2.9,-0.7,-23.3,15.4,8.5,-28.4,2643
O=C(NC1CC1)c1cc(-c2ccc(Br)cc2)nc2ccccc12,10.7,.,-19.7,6.8,1.1,2.4,5442
CN(C)N=Cc1ccc(N2CCOCC2)cc1,7.7,.,.,-2.4,-1.7,2.5,.
CN(CC(=O)Nc1c(Cl)cccc1Cl)C(=O)c1ccc(-n2cncn2)c([N+](=O)[O-])c1,0.9,-5.8,0.6,1.5,2.0,3.7,?
CC(=O)Nc1sc2c(c1C#N)CCC2,1.5,1.4,-5.8,-8.1,-2.2,5.5,3183
CN(C)S(=O)(=O)c1cccc(NC(=O)c2cccc(S(=O)(=O)N3CCCCCC3)c2)c1,2.7,.,-9.3,13.8,-3.0,2.9,5405
c1ccc2nc(SCc3cn4ccccc4n3)cnc2c1,4.9,1.3,42.5,7.7,6.8,16.3,3329
COCC(=O)NN=C(C)CC(=O)NCc1ccco1,7.7,.,.,2.5,10.0,-2.8,.
O=C(c1cc2cc(F)ccc2[nH]1)N1CCc2ccccc21,1.9,-1.7,-85.6,2.0,8.5,-7.4,3627
CCc1nc(C(N)=O)c2[nH]c(=O)n(-c3ccc(OC)cc3OC)c2n1,-2.6,-8.1,-4.6,8.2,7.4,-5.1,5778
CC(C)CC(C(=O)OCC(=O)c1c(N)n(C)c(=O)n(C)c1=O)N1C(=O)C2CC=CCC2C1=O (stereo not drawn),-5.4,2.4,-6.3,11.7,1.5,8.3,4258
Cc1cc(OCC(O)CNC(C)c2ccccc2)ccc1C(C)C (stereo not drawn),0.2,-7.2,-0.1,12.6,11.8,-5.9,3936
Cc1sc2ncnc(SCC(=O)N(C)C3CCS(=O)(=O)C3)c2c1C (stereo not drawn),10.5,4.6,0.4,14.8,10.8,5.0,4043
Cc1ccc2c(c1)N(C(C)C(=O)NCc1ccccn1)C(=O)CO2 (stereo not drawn),4.5,7.9,-9.5,7.5,12.2,5.1,3869
CCOc1ccc(C=CC(=O)C(C(N)=O)=C2SCCS2)cc1,6.9,.,.,6.3,10.1,7.9,.
Cc1cccc(CCNC(=O)CCS(=O)(=O)c2ccc3nc(C)sc3c2)c1,-0.8,-7.3,-19.7,.,.,0.3,5796
CCOC(=O)c1ccc(N/C(=N\S(=O)(=O)c2ccc(F)cc2F)c2ccccc2)cc1,.,15.8,-11.5,.,.,.,2527
Cc1nnc2n(c1=O)C(CS(=O)(=O)c1ccc3ccccc3c1)CS2 (stereo not drawn),3.5,11.2,-14.6,-1.8,0.2,-8.5,3683
CC/C(=N/OC(=O)c1cccc(C)c1)C(=O)c1cccs1,.,-0.7,-14.8,.,.,.,4306
COCCNC(=O)Cn1nc(C(F)(F)F)c(Cl)c1C,5.0,7.5,-13.7,.,.,-0.7,4380
Cc1ccc(C(=O)CC(=O)c2ccccc2)cc1,2.1,-3.5,-62.9,10.2,6.0,9.9,3761
CCCS(=O)(=O)N1CCCC(C(=O)NCc2ccc3c(c2)OCO3)C1 (stereo not drawn),0.6,10.9,-21.5,-0.5,3.6,-2.7,2405
CCCCN(C)CCCNC(=O)C1CC(=O)N(Cc2ccc(OC)cc2)C1 (stereo not drawn),4.7,3.9,-7.7,5.4,2.7,-1.6,2921
COc1ccccc1N(C)S(=O)(=O)c1ccc(C(=O)Nc2nnc(C)s2)cc1,3.8,.,-8.7,-5.5,-2.5,1.9,4633
COc1cc(OC)c(C(=O)OCC(=O)Nc2cc(C)on2)cc1OC,5.1,-0.8,4.6,1.1,2.0,2.2,2022
Cc1cccc(OCC(=O)NNC(=O)C2CCN(c3ncnc4sc(C)c(C)c34)CC2)c1,-1.2,2.4,-18.6,11.2,-6.4,1.7,?
CC1CCC2(CC1)NC(=O)N(NC(=O)CSc1nnc(NC3CC3)s1)C2=O (stereo not drawn),3.6,.,-17.1,9.9,2.5,2.2,8830
CCOC(=O)C1=C(C)NC(=O)C(C#N)C1c1ccncc1 (stereo not drawn),2.4,2.5,-11.4,7.0,7.4,2.0,11195
O=C(CCN1CCC2CCC(C2)C1)c1ccccc1 (stereo not drawn),-4.8,.,-25.9,9.3,7.0,10.3,3903
Cc1ccc(-n2c(O)c(C=Nc3ccc(S(=O)(=O)N(C)C)cc3)c(=O)[nH]c2=O)cc1,3.2,-9.2,-18.5,6.9,2.2,1.8,4474
COc1ccc(CC(C)=NNS(=O)(=O)c2ccc(Br)cc2)cc1,5.6,.,.,7.2,3.4,6.3,.
CCn1c(C)cc(/C=C2\NC(=O)N(CC(=O)Nc3cccc(C)c3)C2=O)c1C,9.0,3.9,-22.9,5.9,6.0,-12.3,3214
CCOc1ccc(NC(=O)C(C)C(Cc2ccc(C)cc2)C(=O)O)cc1 (stereo not drawn),-0.2,-9.6,-33.0,19.2,-2.3,7.3,3765
CC1(c2nnc(Cc3ccccc3)o2)CC(c2cccc(F)c2)=NO1 (stereo not drawn),3.7,-2.7,5.6,8.3,9.4,-7.3,4307
O=C(c1cc2sccc2n1Cc1ccc(F)cc1)N1CCN(c2nc3ccccc3s2)CC1,-1.6,10.8,-20.1,.,.,7.0,2786
NS(=O)(=O)c1ccc(N=Nc2c(O)[nH]c3ccc(Br)cc23)cc1,-3.0,-22.5,-5.6,0.3,4.1,-12.4,5214
COC(=O)c1ccccc1N1C(=O)C2C(C1=O)C1C=CC2C12CC2 (stereo not drawn),3.1,-2.3,-3.1,9.3,1.9,9.6,7774
Cc1ccc(C(=O)N/C(=C/c2cccnc2)C(=O)O)cc1,7.6,-1.3,-8.7,-3.7,2.0,19.0,10259
Cc1ccc(NS(=O)(=O)c2ccccc2Cl)c2c1CC(C)(C)O2,11.3,5.0,-21.7,.,.,24.6,4707
CN(Cc1ccccc1)C(=O)C1CCCN1S(=O)(=O)c1ccc2c(c1)n(C)c(=O)c(=O)n2C (stereo not drawn),2.7,-2.6,-14.0,12.0,6.4,5.9,6117
COC(=O)c1c(NC(=O)c2ccc(S(=O)(=O)N3CCOCC3)cc2)sc2c1CCN(C)C2,-0.5,.,.,3.8,15.2,0.7,.
C=C(C)C1CC=C(C)C(=NNC(=O)c2cccc([N+](=O)[O-])c2)C1 (stereo not drawn),3.1,.,.,4.4,10.4,-5.7,.
O=C(CC1SC(=Nc2ccccc2)N(Cc2ccccn2)C1=O)Nc1ccc(Br)cc1 (stereo not drawn),-3.6,3.5,-16.9,8.7,0.6,6.1,2837
CCOC(=O)c1c(C)n(-c2ccc(OC)cc2)c2ccc(O)c(CN(C)C)c12,-1.5,-2.0,-11.1,16.0,18.7,-29.9,4556
CCOc1ccc(CCNC(=O)COC(=O)c2ccco2)cc1OCC,-1.3,-7.4,1.4,.,.,3.4,3911
Cc1cccc(OCC(=O)NC(C)C(=O)N/N=C/c2c(OCc3ccccc3)ccc3ccccc23)c1 (stereo not drawn),.,-11.5,-51.4,.,.,.,11591
O=C(NCCc1cccnc1)C1CCC(=O)N(Cc2cccc(C(F)(F)F)c2)C1 (stereo not drawn),2.3,-2.0,0.4,0.8,0.0,6.7,?
Cc1ccc(N/N=C(\C#N)C(=O)c2ccsc2)cc1,.,-5.1,-25.2,.,.,.,4138
CCCCc1c(C)c(C#N)c2[nH]c3ccccc3n2c1=O,44.4,1.2,2.3,4.8,16.1,47.5,3012
Cc1c(=O)n(OCc2ccccc2)c2ccccc2[n+]1[O-],3.4,-1.9,-20.6,.,.,2.3,2905
COc1ccc(-c2nnc(SCC(=O)Nc3ccc(Cl)cc3)n2C)cc1,2.4,-2.8,-17.1,4.9,-1.1,10.7,9194
COc1ccc(OC)c(NC(=O)CC2SC(=Nc3ccccc3)N(CCc3ccccn3)C2=O)c1 (stereo not drawn),5.9,-11.3,-31.7,-4.2,-7.8,-2.9,2027
CCOC(=O)C1=C(C)Nc2ncnn2C1/C=C/c1ccccc1 (stereo not drawn),2.8,-1.2,5.2,1.3,10.6,-10.3,20063*
CC(C)n1nnnc1-c1cccc(Cl)c1,8.9,10.6,-34.6,13.2,6.5,0.1,17953*
